NPYLR7 agonist = agonists of mosquito NPYLR7 receptor, primary screen, cell-based, Aedes aegypti, calcium fluorescence, mosquito biting behavior. HEK293T NPYLR7/Galpha15, GCaMP6s calcium fluorescence. activation, % at 10 µM. 0.15% of 270,000 active; in the data active means activation above about 40%;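 further: 0% = vehicle and 100% = reference agonist at the receptor; some compounds past the cut are filed as inactive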
NPYLR7 agonist max-min = further read-out of NPYLR7 agonist, marked with its call; activation, %; measured here: Max-Min RFU normalised activation; some inactives read as strong as hits;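 span of the calcium signal over five minutes; 0% = vehicle and 100% = native peptide agonist; compound fluorescence can raise it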
An asterisk follows results filed as active; & = joins results of further samples.

| Compound | NPYLR7 agonist | NPYLR7 agonist max-min |
| --- | --- | --- |
| O=C(CSc1nc2c(c(=O)n1-c1ccc(OC(F)(F)F)cc1)SCC2)NCC1CCCO1 (stereo not given) | -5 | -8 |
| CCOc1ccccc1N1CC(c2nc3ccccc3n2CC)CC1=O (stereo not given) | 0 | 19 |
| CCCc1nc(N2CCN(C(=O)Nc3cccc(Br)c3)CC2)c2c(-c3cccc(C(F)(F)F)c3)noc2n1 | 21 | 6 |
| C=CCN(CC=C)C(=O)CSc1nc(N)cc(=O)[nH]1 | 1 | -3 |
| COc1cc(C(=O)N2CCN(C(=O)c3cc(OC)c(OC)c(OC)c3)CC2)cc(OC)c1OC | 2 | 9 |
| CCN(C)c1ccnc(N2CCN(c3cc(C)nc(N)n3)CC2)n1 | -5 | -8 |
| CSc1ncc(C(=O)N(C)CC(=O)Nc2c(C)cc(C)cc2C)n1-c1ccccc1 | 0 | 0 |
| COC(=NCCN(C)C)NC(=O)c1ccc(OC)cc1 | 22 | 27 |
| CC(C)(C)NC(=O)N1CCN(C(=O)CCN2CCc3sccc3C2c2cccc(F)c2)CC1 (stereo not given) | -12 | -8 |
| Cc1cc(=O)[nH]c(CCNC(=O)[C@@H](O)c2ccccc2)n1 | 12 | 5 |
| CCOC(=O)C1(C/C=C/c2ccccc2)CCCN(C(=O)c2sc(C)nc2C)C1 (stereo not given) | 13 | 8 |
| CN(Cc1nc2ccccc2c(=O)[nH]1)S(=O)(=O)NCc1ccccc1 | 1 | -4 |
| CCCC1CCCN(C(=O)c2ccc3c(c2)NC(=O)CCS3)CC1 (stereo not given) | 6 | 5 |
| COCCCNC(=O)c1cc(NC(=O)c2ccc(Br)cc2)ccc1N1CCCCC1 | 25 | 30 |
| CC(C)CC(=O)Nc1ccnn1C1CCN(CC2=CC[C@H]3C[C@@H]2C3(C)C)CC1 | -1 | 2 |
| Cc1ccc(-n2ncc3c(=O)n(NC(=O)c4cccc([N+](=O)[O-])c4)cnc32)cc1C | 5 | 3 |
| COC(=O)C1=C(C)N(c2ccc3c(c2)OCCO3)C(=S)NC1c1ccc(Cl)c([N+](=O)[O-])c1 (stereo not given) | -3 | 3 |
| CCN(CC)S(=O)(=O)c1cc(N)ccc1Cl | 4 | 4 |
| COc1cc(S(=O)(=O)n2nnc3ccccc32)ccc1Br | 0 | 4 |
| Cc1ccc(-n2nnnc2N2CCC(C(=O)N3CCCC(C)C3)CC2)cc1 (stereo not given) | -3 | -4 |
| O=C(c1cc2sccc2[nH]1)N1CCCC(CO)(CCc2ccccc2)C1 (stereo not given) | 24 | 16 |
| Cn1ncc2c(Nc3ccc(Cl)cc3)nc(N3CCCC3)nc21 | 2 | 0 |
| Cc1noc(CN2CCN(CC(O)c3cccc(Cl)c3)CC2)n1 (stereo not given) | 0 | 7 |
| Cc1ccc(-n2ccnc2-c2cccc(OCC(N)=O)c2)c(F)c1 | 23 | 3 |
| CC1CCC(N(C)c2nc(C(F)(F)F)nc3ccccc23)CC1 (stereo not given) | 16&8 | 12&7 |
| Cc1ccc(-c2nn3c(C)nnc3c3ccccc23)cc1S(=O)(=O)N1CCOCC1 | -17 | -22 |
| CCc1c(O)nc2n(c1=O)CCS2 | -1 | 0 |
| CCCN(Cc1ccc(C)cc1)C(=O)CSc1nc(N)c(C#N)cc1C#N | 4 | 4 |
| O=S(=O)(NCc1cn2ccccc2n1)c1ccc(Cl)s1 | 3 | 2 |
| O=C(c1ccc(-n2cccn2)cc1)N1CCN(S(=O)(=O)c2ccc(F)cc2F)CC1 | -1 | -2 |
| CN(C)c1ccc(C(CNC(=O)CC(C)(C)C)N2CCc3ccccc32)cc1 (stereo not given) | -3 | 4 |
| CC(C)c1ccc(S(=O)(=O)NCc2ccco2)cc1 | 0 | 5 |
| CC(=O)c1cccc(CN2CCCC(Nc3ccc(F)c(F)c3)C2)c1 (stereo not given) | 16 | 4 |
| NCCCN(c1ccccc1)c1ncccn1 | -1 | -3 |
| COCCCN(CC(=O)N(CCc1ccccc1)Cc1ccc(C)o1)Cc1ccc(Cl)cc1Cl | 0 | 1 |
| O=C(Nc1ccc(Cl)c(C(F)(F)F)c1)NC1CCc2[nH]c3ccccc3c2C1 (stereo not given) | -11 | -18 |
| Cc1nn(CC(C)C)c(C)c1CC(=O)N(C)CCN1CCCC1=O | 0 | 2 |
| CCc1ocnc1C(=O)Nc1nc2ccc(Br)cn2n1 | 13 | 10 |
| CN(C)CC1(O)CCCN(C(=O)COc2cccc(F)c2)CC1 (stereo not given) | 8 | 3 |
| COc1cc(S(=O)(=O)n2ccc(C)n2)c(C)cc1C | -10 | -14 |
| CN1CCc2nc(NC3=NCCCCC3)sc2C1 | -2 | -2 |
| CC1CN(C(=O)CCN2CCc3sccc3C2c2ccccc2)CCN1C(=O)CCl (stereo not given) | 6 | 5 |
| OC(Cc1ccccc1)CN(Cc1ccccc1)Cc1ccccc1 (stereo not given) | 27 | 22 |
| C=CCCC(O)(CCC=C)c1ccc(CN(Cc2ccc(OC)cc2)CC2CCCO2)o1 (stereo not given) | -8 | 0 |
| COCCCn1c(C(=O)NCCc2ccccc2)cc2c(=O)n(C)c(=O)n(C)c21 | 2 | 0 |

4 entries from above, field by field.
O=C(c1ccc(-n2cccn2)cc1)N1CCN(S(=O)(=O)c2ccc(F)cc2F)CC1
  NPYLR7 agonist: -1; NPYLR7 agonist max-min: -2

O=S(=O)(NCc1cn2ccccc2n1)c1ccc(Cl)s1
  NPYLR7 agonist: 3; NPYLR7 agonist max-min: 2

COC(=NCCN(C)C)NC(=O)c1ccc(OC)cc1
  NPYLR7 agonist: 22; NPYLR7 agonist max-min: 27

CC(C)(C)NC(=O)N1CCN(C(=O)CCN2CCc3sccc3C2c2cccc(F)c2)CC1 (stereo not given)
  NPYLR7 agonist: -12; NPYLR7 agonist max-min: -8

The list continues.
SMILES | NPYLR7 agonist | NPYLR7 agonist max-min
CCOc1ccc(C(=O)Nc2cc(C(C)(C)C)nn2-c2ccc(Br)cc2)cc1 | 27 | 11
O=C1CC(c2cccc(F)c2)N(CCCc2ccccc2)CCN1 (stereo not given) | 12 | 1
COc1ccc(COC(=O)C2=C(C)NC(=O)NC2c2ccc(OC)c(OC)c2)cc1 (stereo not given) | -2 | -6
O=C1CCC(C(=O)NC2CC2c2ccccc2)N1 (stereo not given) | -19 | -29
CCOc1c(Br)cc(Cl)cc1NC(=O)c1ccoc1 | -3 | -7
CC1=CC(=O)C=C(C)C1=NOS(=O)(=O)c1ccc(Cl)cc1 | 1 | 0
CC(C)(C)c1ccc(-c2ccnc(N3CCN(C(=O)c4ccc5c(c4)OCO5)CC3)n2)cc1 | 5 | -1
CN(Cc1nnc2ccccn12)C(=O)Nc1cccc(C(F)(F)F)c1 | 14 | 12
Cc1nc2c(C(N)=O)ncn2c(C)c1CCC(=O)O | 1 | 1
COc1cc(CN(C)C(=O)c2c(C)noc2-c2ccccc2Cl)cc(OC)c1OC | 0 | -6
COc1cn(CC(=O)Nc2cc(C)cc(C)c2)c(CSc2nc(C)cc(C)n2)cc1=O | -5 | -11
COC(=O)CC(=O)N1CCN(C(c2ccccc2)c2ccc(Cl)cc2)CC1 (stereo not given) | -4 | 7
CCCn1c(SC(C)C(=O)N2CCC(Cc3ccccc3)CC2)n[nH]c1=O (stereo not given) | -4 | -3
CN(C)CCCN(C(=O)COc1ccc(Cl)cc1Cl)c1nc2cc3c(cc2s1)OCO3 | 4 | 1
CCCn1ncc(C(=O)N2CCn3nc(C(=O)NC4CC4)cc3C2)c1C | -8 | -12
Cc1cc(C)c(NC(=O)CSc2nc(=O)n(CCCN3CCOCC3)c3c2CCCC3)c(C)c1 | 1 | 2
Cc1cccnc1C(c1ccc(F)cc1)N(C)C(=O)C1CCN(Cc2ccc(Cl)c(Cl)c2)CC1 (stereo not given) | 4 | -6
C=CCn1c(N2CCN(Cc3cccc4ccccc34)CC2)nc2c1c(=O)[nH]c(=O)n2C | -7 | -1
COC(=O)N1CCCC1C(=O)Nc1ccc(-n2ccnc2C)c(F)c1 (stereo not given) | 1 | -2
Nc1nonc1-c1noc(-c2ccc([N+](=O)[O-])cc2)n1 | -9 | -15
COc1ccc(C2CCCN2C(=O)Nc2cccc3cccnc23)cc1OC (stereo not given) | -2 | -2
O=C(NCCCn1cnc2ccccc21)c1cc(Cl)ccc1F | 1 | -2
CCCCCC[n+]1cccc2ccccc21 | 5 | 5
CCc1ccc(S(=O)(=O)NCC2(c3cccs3)CC2)s1 | 6 | -5
COc1cccc(CO[C@]2(C(=O)NCCN3CCOCC3)CC(OCc3ccccc3C#N)[C@@H]3OC(C)(C)O[C@@H]3C2)c1 (stereo not given in full) | 15 | 16
Cc1cc2occ(CC(=O)N3CCC(C(N)=O)C3)c2cc1C (stereo not given) | -2 | -2
Cc1cc(C)c(-c2nc3cc4[nH]c(=O)[nH]c4cc3[nH]2)c(-n2cccn2)c1 | -1 | -5
O=C(Cn1nc(C2CC2)c2cnn(-c3ccc(F)cc3)c2c1=O)OCc1ccccc1 | 6 | 3
Cn1ncc(Br)c1C(=O)NCc1ccccc1 | -15 | -13
COc1cc(CN2CCN(Cc3cccc(C(C)=O)c3)CC2CCO)cc(OC)c1 (stereo not given) | 12 | 2
O=C1NC2=C(C(=O)CCC2)C(c2ccc(OC(F)F)cc2)N1 (stereo not given) | 0&3 | -7&-1
Cc1cc(CO)c(OCCOCCOc2c(CO)cc(C)cc2CO)c(CO)c1 | -9 | -10
COC(=O)N1C[C@@H](Oc2ccccn2)[C@H]2C[C@@H]1Cc1c2oc2ccccc12 | 20 | 17
COc1cc(OC)c(OC)cc1C=C1N=C(c2cccc(C)c2)OC1=O | 3 | 12
CC(=O)N1CCN(C(C)(C)c2nnnn2-c2c(C)cccc2C)CC1 | 3 | 3
Cc1ccc2c(=O)c(C(=O)Nc3ccc(F)cc3)c[nH]c2n1 | 0 | 1
CCOc1ncccc1C(=O)N1CCOC(COc2ccc(F)cc2)C1 (stereo not given) | 4 | 12
Cc1cccc(NC(=O)CSc2nnc(N3CCOCC3)n2C2CC2)c1C | 6 | 2
CCNc1ccc(S(=O)(=O)N(CC)CC)cc1NC(=O)c1ccccc1F | -4 | -3
CCOCCNC(=O)c1ccc(-n2nc(C(=O)OCC)cc2-c2cccc(OC)c2)cc1 | 2 | -1
O=C(NC1CC2CCC(C1)N2Cc1ccoc1)c1cc(C(F)(F)F)cc(C(F)(F)F)c1 (stereo not given) | 7 | 8
CCNc1ccccc1S(=O)(=O)CC | 6 | -8
CCCCCCC(=O)Nc1ccc(C2SCC(=O)N2c2ccc3c(c2)CCC3)cc1 (stereo not given) | 5 | 4
Cc1ccccc1-c1nc(COc2ccccc2OCC(N)=O)c(C)o1 | 25 | 12
COCC1CCN(c2nc3nonc3nc2NCc2ccccc2)CC1 | 2 | 0
Cc1[nH]ncc1C(=O)N1CCC(OCCC(C)C)C1 (stereo not given) | -1 | -3
C/C=C/COC(=O)C1=C(C)NC(=O)NC1c1ccc(CC)cc1 (stereo not given) | -2 | -7
CCOc1ccc(NC(=O)CNC(c2ccc(F)cc2)C(C)C)cc1 (stereo not given) | -2 | -2
COc1ccc(S(=O)(=O)N2CCn3cccc3C2C)cc1 (stereo not given) | 12 | 11
CSc1nnc(C)c(=O)n1COC(=O)c1cc(C(F)(F)F)cc(C(F)(F)F)c1 | 3 | -1
Cc1ccc(S(=O)(=O)NNC(=O)c2cncn2-c2ccc(F)cc2)cc1 | 2 | 3
COc1cc(Br)c(S(=O)(=O)NNC(=O)c2oc3ccccc3c2C)cc1OC | 1 | 0
COCCN1CCCC2(CCN(Cc3cc4ccccc4o3)C2)C1=O (stereo not given) | -1 | -12
CC(C)NC(=O)N(Cc1ccccc1Cl)CC1CC(c2cccc(F)c2)=NO1 (stereo not given) | 18 | 18
COc1ccc(C2CCCN2C(=O)NC2CCCCC2C)c(OC)c1 (stereo not given) | -1 | -1
Cc1nc2ccccc2n1CC(O)Cn1c2ccccc2c2ccccc21 (stereo not given) | 9 | 13
Cc1ccc(NC(=O)CC2S\C(=N/N=C\C=C\c3ccccc3)NC2=O)cc1 (stereo not given) | 4 | -4
CCC(Sc1ccc2nnc(CCNC(=O)c3ccc(OC)cc3)n2n1)C(=O)OC (stereo not given) | 0 | -12
O=C(COCC1CCCCO1)N1CC2C[C@@H]3CC1C[C@H](C2)C3 (stereo not given in full) | 2&2 | 0&0
CCc1ccc(CCC(=O)NC(C)c2ccc(S(C)(=O)=O)cc2)cc1 (stereo not given) | 2 | 0

Additional entries
SMILES | NPYLR7 agonist | NPYLR7 agonist max-min
COc1ccc(CNC(=O)c2ccc(NC(=O)c3ccco3)s2)cc1 | 1 | 1
O=c1cccc(-c2cc(NCc3ccccn3)nc3[nH]ccc23)[nH]1 | 10 | 5
c1ccc(CC[P+](c2ccccc2)(c2ccccc2)c2ccccc2)cc1 | 3 | 3
Cc1cc(=O)oc2cc(CN(Cc3ccsc3)CC3CCCO3)ccc12 (stereo not given) | 30 | 14
CCC(=O)N=c1sc2c(C)ccc(OC)c2n1CC | 6 | 7
Cc1ccc2nc(-c3ccccc3F)c(NC(=O)Cc3ccc(F)cc3)n2c1 | 4 | 5
COCCN1C(=O)N(Cc2ccccc2)C2(CCN(Cc3ccc4nsnc4c3)CC2)C1=O | 7 | -1
O=C(O)c1cccc(N2C(=O)CSC2c2c(F)cccc2Cl)c1 (stereo not given) | 0 | -5
COCCN(C)C(C(=O)O)c1ccc(F)c(C)c1 (stereo not given) | 3 | -1
Cc1ccccc1C(=O)NC(C(=O)N1CCc2ccccc21)C(C)C (stereo not given) | 1 | -2

Some of these compounds in order of SMILES length, ascending:
SMILES | NPYLR7 agonist | NPYLR7 agonist max-min
COCCN(C)C(C(=O)O)c1ccc(F)c(C)c1 (stereo not given) | 3 | -1
O=c1cccc(-c2cc(NCc3ccccn3)nc3[nH]ccc23)[nH]1 | 10 | 5
COCCN1C(=O)N(Cc2ccccc2)C2(CCN(Cc3ccc4nsnc4c3)CC2)C1=O | 7 | -1

An excerpt; the hit share may differ from the screen's.
